High-throughput results from PubChem BioAssay.
Rango release inh = inhibitors of RanGTP-induced Rango-importin beta complex dissociation; 0.071% of 340,000 active; Biochemical FRET Rango-importin beta, RanGTP-induced dissociation; Potency, µM (highest dose often 46.1 µM), for the others: top-dose activity change, negative = inhibition; O95149+P62826; AID 540253; active means falling FRET ratio curve, often poorly fitted, with flat reads before Ran was added; inconclusive means other falling curves, or compound fluorescence or quenching; inactive means flat or rising ratio curve;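 note: potency is the fitted concentration of half-maximal effect; % of control where 0% means no effect; nearly all actives have a fitted effect of over 45% in size; -100% = wells without RanGTP and RCC1; the record marks most hits as doubtful in a second field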
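Rango FRET biosensor (snurportin-1 IBB flanked by N-terminal EYFP and C-terminal CFP10) at 0.1 uM, with 0.25 uM importin beta in PBS, 1mM DTT, 0.02% Tween-20, 0.1% BSA. 0.6 uM Ran, 2mM GTP and 0.2 uM RCC1 were then added for 45 min at room temperature. Inhibition read as loss of FRET rise.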
Rango-impB inh = Rango-importin beta binding inhibition; AID 540263; Potency, µM (series often up to 92.2 µM), for the others: top-dose inhibition of complex formation; Q14974; Rango CFP/YFP FRET sensor + importin beta, 45 min; 0.031% of 340,000 active; active = rising FRET ratio curve, often small or poorly fitted; inconclusive = mostly compound fluorescence or quenching in the first reads; inactive = flat curves in all reads;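 note: potency is the fitted concentration of half-maximal effect; 0% = DMSO wells and 100% = buffer wells lacking importin beta; nearly all actives have a fitted effect of over 15% in size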
Target sequence (Q14974 whole entry, looked up): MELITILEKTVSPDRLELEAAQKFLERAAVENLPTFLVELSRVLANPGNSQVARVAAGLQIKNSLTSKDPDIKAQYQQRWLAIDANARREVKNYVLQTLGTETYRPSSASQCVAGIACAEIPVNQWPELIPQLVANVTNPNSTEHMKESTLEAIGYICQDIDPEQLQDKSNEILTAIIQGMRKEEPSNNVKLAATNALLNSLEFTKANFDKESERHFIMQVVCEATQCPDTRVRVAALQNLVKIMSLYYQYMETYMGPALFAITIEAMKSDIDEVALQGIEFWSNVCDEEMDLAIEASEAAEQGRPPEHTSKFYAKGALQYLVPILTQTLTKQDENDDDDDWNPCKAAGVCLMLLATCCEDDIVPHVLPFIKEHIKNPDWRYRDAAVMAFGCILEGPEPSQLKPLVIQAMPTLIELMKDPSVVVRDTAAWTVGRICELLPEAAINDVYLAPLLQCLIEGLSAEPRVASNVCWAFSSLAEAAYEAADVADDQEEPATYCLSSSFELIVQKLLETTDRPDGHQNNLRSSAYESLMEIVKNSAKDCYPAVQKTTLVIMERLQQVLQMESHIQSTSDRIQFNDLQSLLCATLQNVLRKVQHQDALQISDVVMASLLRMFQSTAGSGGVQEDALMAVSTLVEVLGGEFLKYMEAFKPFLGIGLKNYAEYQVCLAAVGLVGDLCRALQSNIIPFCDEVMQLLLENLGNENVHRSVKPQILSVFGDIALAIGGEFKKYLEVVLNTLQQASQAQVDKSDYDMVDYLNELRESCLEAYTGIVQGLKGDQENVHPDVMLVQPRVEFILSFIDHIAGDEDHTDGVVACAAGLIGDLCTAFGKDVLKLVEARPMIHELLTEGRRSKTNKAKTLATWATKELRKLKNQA
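FRET biosensor Rango (snurportin 1 IBB between N-terminal EYFP and C-terminal Cerulean), 50 nM in PBS/1 mM DTT/0.02% Tween-20/0.1% BSA, preincubated 5 min RT with compound; 0.125 microM importin beta added, 45 min RT, CFP/YFP FRET ratio read.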
GLA inh pH 4.5 = alpha-galactosidase A (human) inhibition, pH 4.5; purified enzyme, 4-MU-alpha-Gal fluorescence, pH 4.5; 230,000 tested, under 10 active; P06280; activity change, negative = inhibition, % at 105 µM; AID 1467; inconclusive = small, poorly fitted or top-dose-only inhibition, or a rising curve; inactive = flat fitted curve, though single readings scatter; no compound was filed as active;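 note: 0% = full activity with enzyme and -100% = basal without enzyme; dose as in the result columns while the protocol names 77 µM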
miR-21 FLuc = raises the signal of a miR-21 reporter. HeLa miR-21 FLuc reporter, luciferase, 48 h. Potency, µM (series often up to 38.3 µM), without a hit: at the top dose reporter change, positive = more light. 340,000 tested, under 10 active. AID 2288; active = well fitted rising curve with a large enough effect; inconclusive = small, poorly fitted or top-dose-only effect; inactive = no such curve, though single readings can be large or run the other way;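 note: % of control where 0% means no effect; miR-21 action dims this reporter so a rising signal means less miR-21 action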
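HeLa miR-21-FLuc reporter line, endogenous miR-21; 2000 cells/well in DMEM/10% FBS; compound titration up to ~40uM final, 48 h, 37 degree Celsius; luciferase detection reagent, 15 min lysis, CCD luminescence.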
Active calls of the source: *; ? = inconclusive; nt = not tested or not shown; & = joins results of further samples.

SMILES	Rango release inh	Rango-impB inh	GLA inh pH 4.5	miR-21 FLuc
Cc1ccc(NC(=O)Cn2cc([N+](=O)[O-])nc2C)cc1C	-17%	5.7%	nt	0%
O=C(CCCn1nnnc1CN1CCOCC1)N1CCC(c2ccc(F)cc2)C1 (stereo unspecified)	-11%	-1.7%	nt	-1%
CCC(c1nnnn1C(C)(C)CC)N(CCCO)Cc1cc2cccc(C)c2[nH]c1=O (stereo unspecified)	12%	3.2%	-3	-10%
Cc1cc(=O)[nH]c(SCC(=O)Nc2ccnc3ccccc23)n1	?	?	0	0%
Cc1ccc(NC(=O)C2CC(=O)N(Cc3ccccc3)C2)cc1S(=O)(=O)N1CCCCCC1 (stereo unspecified)	-6%	4.2%	-3	26%
CCOc1ccc(Nc2ccc3nonc3c2[N+](=O)[O-])cc1	12%	4.1%	nt	0%
Cc1ccc(S(=O)(=O)NCC(NCc2ccc(F)cc2)c2ccccc2)cc1 (stereo unspecified)	2%	0.3%	nt	nt
CN1CC(=O)N(CC(=O)Nc2cc(Cl)cc(Cl)c2)C1=O	-1%	-0.3%	2	-2%
Cn1c2ccccc2c(=O)c2c(O)cccc21	3%	-4.3%	1	-6%
COc1ccc2c(c1OC)CCC2=O	1%	-1.1%	0	-5%
COc1ccc(OCCCC(=O)ON=C(N)c2ccccc2C)cc1	19%	5.2%	nt	nt
CCN1CCC(NC(=O)Nc2cccc(C(F)(F)F)c2)CC1	-7%	5.8%	-5	-9%
COCCNC(=O)CCc1c(C)nc2c(c(C)nn2-c2ccc(C)c(C)c2)c1C	15%	4.9%	nt	-3%
CCCn1c(N)c(C(=O)CSc2nc(C)cs2)c(=O)[nH]c1=O	21%	1.4%	-3	-7%
COc1c(F)c(F)c(C(=O)O)c(Nc2ccccc2)c1F	-10%	2.6%	5	0%
COc1ccc(NC(=O)Nc2nnc(-c3ccccc3F)s2)cc1	0%	-3.0%	5	4%
O=C(CS(=O)(=O)Cc1ccccc1)Nc1cccnc1	?	-3.6%	-4	-3%
O=c1[nH][nH]cc1C=Nc1ccccc1O	11%	-4.9%	-6	-6%
CCOc1ccccc1Nc1ncnc2ccccc12	-4%	3.8%	-5	-7%
CC(C)(C)C(=O)OC/C(N)=N/OC(=O)c1ccc(Cl)c(Cl)c1	0%	-0.1%	-8	-10%
COc1ccc(NC(C)=O)cc1S(=O)(=O)Nc1ccc2c(c1)OCCO2	-9%	4.9%	11	-4%
N#Cc1ccc(OCC(=O)Nc2ccc3[nH]c(=O)[nH]c3c2)cc1	-15%	0.0%	nt	nt
O=C(COC(=O)C1COc2ccccc2O1)NC1CCS(=O)(=O)C1 (stereo unspecified)	3%	-0.6%	-8	-3%
CCOc1ccc(NC(=O)C/C(C)=N/NC(=O)Cc2ccc(Cl)cc2)cc1	-3%	-1.4%	nt	-3%
Cc1csc(NC(=O)c2cccn2C)n1	3%	0.7%	10	-23%
COc1ccc(Cn2c(C)nc([N+](=O)[O-])c2SCC(=O)O)cc1[N+](=O)[O-]	6%	-2.5%	8	-1%
COc1ccc(NC(=S)NNC(=O)c2cccnc2)cc1OC	-21%	-0.8%	2	-5%
NC(=O)c1ccc(N2CCN(S(=O)(=O)c3cccs3)CC2)c([N+](=O)[O-])c1	9%	-4.9%	nt	nt
COc1cnn(-c2ccccc2)c(=O)c1N(C)C	-3%	-1.8%	0	-13%
O=C(CCc1ccccc1)NCCCN1CCOCC1	-9%	4.3%	6	-7%
NS(=O)(=O)c1ccc(CNC(=O)c2ccc(Cl)cc2[N+](=O)[O-])cc1	-5%	-3.3%	-2	-12%
COc1ccccc1C(=O)Nn1c(C)nc2ccccc2c1=O	-9%	-5.0%	nt	-1%
Cc1cc(C(=O)COC(=O)c2ccc(O)cc2)c(C)n1Cc1ccco1	0%	2.5%	?	-72%
Cc1nc(-c2ccc(F)cc2)c(CC(=O)N2CCN(S(=O)(=O)c3cccc(F)c3)CC2)s1	-6%	-0.4%	nt	nt
Cc1c(Cl)c([N+](=O)[O-])nn1CC(=O)NCCCN1CCOCC1	-18%	4.9%	nt	0%
COC(=O)c1c(C(=O)OC)c(C)n(Cc2cccnc2)c1C	0%	0.9%	2	-10%
COc1ccc(NC(=O)CN2CCN(S(=O)(=O)N(C)C)CC2)cc1	0%	2.7%	nt	1%
CN(C)S(=O)(=O)c1ccc(Cl)c(NC(=O)COC(=O)CN2C(=O)NC(C)(C)C2=O)c1	-3%	-0.5%	2	-3%
COc1ccc(NC(=O)Nc2sc(NS(=O)(=O)c3ccccc3)nc2C)cc1	-5%	1.2%	0	-1%
c1ccc(CCn2nnc3ccccc32)cc1	-18%	0.4%	-4	-62%

2 entries drawn at random from the list so far:
SMILES	Rango release inh	Rango-impB inh	GLA inh pH 4.5	miR-21 FLuc
COc1ccc(NC(=S)NNC(=O)c2cccnc2)cc1OC	-21%	-0.8%	2	-5%
COC(=O)c1c(C(=O)OC)c(C)n(Cc2cccnc2)c1C	0%	0.9%	2	-10%

Ordered by the number under Rango release inh (smallest number first): 4 of the compounds above.
SMILES	Rango release inh	Rango-impB inh	GLA inh pH 4.5	miR-21 FLuc
N#Cc1ccc(OCC(=O)Nc2ccc3[nH]c(=O)[nH]c3c2)cc1	-15%	0.0%	nt	nt
COc1ccc(NC(C)=O)cc1S(=O)(=O)Nc1ccc2c(c1)OCCO2	-9%	4.9%	11	-4%
Cc1cc(C(=O)COC(=O)c2ccc(O)cc2)c(C)n1Cc1ccco1	0%	2.5%	?	-72%
Cc1csc(NC(=O)c2cccn2C)n1	3%	0.7%	10	-23%

Following part:
SMILES	Rango release inh	Rango-impB inh	GLA inh pH 4.5	miR-21 FLuc
CCOC(=O)CN(C(=O)COc1nc(-c2ccccc2)cc(C)c1C#N)c1ccc(C)cc1	-10%	1.8%	-7	0%
O=C1CSC(=O)N1CC(O)COc1ccc(Cl)cc1 (stereo unspecified)	0%	0.5%	9	-29%
O=C(Nc1ccccc1)c1cccc(=O)o1	0%	-1.1%	-1	-20%
Cc1nc(C)c(-c2csc(N)n2)s1	-7%	-1.5%	-5	9%
c1ccc(CN2CCN(c3nc(-c4ccccc4)nc(-n4ccnc4)n3)CC2)cc1	-8%	-0.4%	-3	9%
Cc1ccc(F)cc1NC(=O)COC(=O)COc1ccc(C#N)cc1	0%	-0.5%	nt	nt
O=c1[nH][nH]c2cc(=O)n(-c3cccc(C(F)(F)F)c3)nc12	2%	0.5%	-2	1%
Cn1c(Cc2cccs2)nnc1SCc1nc2ccccc2[nH]1	-7%	-2.9%	-2	-4%
COc1ccc(NC(=O)C(OC(=O)c2cnc(C)cn2)c2ccccc2)cc1Cl (stereo unspecified)	-9%	-1.0%	nt	nt
Cc1ccc(N(C(=O)c2csnn2)C(C(=O)NC(C)(C)C)c2cccnc2)cc1 (stereo unspecified)	9%	0.3%	9	-3%
O=C(O)c1ccccc1C(=O)NCc1cccnc1	-4%	-2.7%	13	2%
CCC(Cc1ccccc1)NC(=O)C1=C(C)C(=O)OC12CCC(C)CC2 (stereo unspecified)	1%	1.8%	6	1%
COc1ccc(S(=O)(=O)N2CCC(C(=O)NCc3ccncc3)CC2)cc1Cl	-12%	6.2%	nt	-1%
Cc1nn(Cc2ccc(C(=O)NN)cc2)c(C)c1Cl	-28%	-0.5%	-18	-2%
CCNc1nc(NCC)nc(OCCOC(=O)Nc2ccccc2)n1	1%	2.9%	-6	-13%
COc1ccc(C2c3ccc4ccccc4c3Oc3ncn(CCN(C)C)c(=N)c32)cc1 (stereo unspecified)	17%	5.1%	nt	?
Cc1ccc(C(=O)Nc2ccc(S(=O)(=O)N3CCN(C)CC3)cc2)o1	-5%	-5.0%	-20	-16%
CCOc1ccc(OCC(=O)OC(C)C(=O)NC2CCCC2)cc1 (stereo unspecified)	-17%	5.0%	nt	nt
CN(C(=O)Nc1cnc2ccccc2c1)c1ccccc1	-13%	-2.1%	9	-40%
CCCc1nc2sc3c(c2c(=O)n1N)CCC3	-1%	0.6%	-3	-18%
Cc1nn(Cc2ccccc2)c2c1C(c1ccncc1)C(C#N)=C(N)O2 (stereo unspecified)	-2%	3.8%	9	0%
Cc1nc(C(=O)O)cc2c1[nH]c1ccccc12	?	?	nt	nt
COc1cc(C(c2sc3nc(C)nn3c2O)N2CC(C)CC(C)C2)cc(OC)c1OC (stereo unspecified)	-13%	-3.5%	4	-4%
COc1cc2nc(CN3CCOCC3)n(CC(=O)N3CCCCCC3)c(=O)c2cc1OC	2%	2.1%	-5	4%
CC1CCC(C(C)C)C(OC(=O)CSc2n[nH]c(=O)[nH]c2=O)C1 (stereo unspecified)	-11%	-0.1%	-7	-13%
Cc1ccnc(NS(=O)(=O)c2cc(-c3cc(C)no3)ccc2C(C)C)c1	-7%	-3.3%	nt	-24%
Fc1ccccc1CNCc1ccc2c(c1)OCO2	-10%	0.0%	nt	-30%
Cc1ccc(O)c(NC(=O)C2CCCN2C(=O)OCc2ccccc2)c1 (stereo unspecified)	19%	16%	nt	0%
O=C(CSc1nc2ccccc2n1S(=O)(=O)c1ccccc1)N1CCCC1	0%	0.7%	9	-35%
CC1(C)C2CCC1(CS(=O)(=O)NCCc1c[nH]c3ccccc13)C(=O)C2 (stereo unspecified)	-8%	?	nt	0%
O=C(NNC(=O)c1ccc2ccccc2c1)c1cccc(F)c1	15%	2.4%	nt	nt
NC(=O)CC(NC(=O)Cc1cccc2ccccc12)c1ccc(N2CCCCCCC2)c([N+](=O)[O-])c1 (stereo unspecified)	-7%	0.4%	nt	3%
Cc1cccc(Oc2nc(-c3cccc([N+](=O)[O-])c3)nc3ccccc23)c1C	3%	4.4%	3	-3%
CCCN1C/C(=C/c2ccc3c(c2)OCO3)C(=O)/C(=C/c2ccc3c(c2)OCO3)C1	?	0.4%	3	-3%
CCOC(=O)c1cc(-c2ccccc2)sc1N	18%	-2.7%	6	-70%
CC(=O)Nc1ccc(NC(=O)Nc2cccc(C)c2C)cc1	?	-0.7%	-3	-4%
Cc1ccc(C(=O)c2oc3ccc(Cl)cc3c2NC(=O)CN2CCN(C)CC2)cc1	-2%	2.6%	nt	?
Cc1cc(C)cc(NS(=O)(=O)c2cc3[nH]c(=O)c(=O)[nH]c3cc2C)c1	13%	-1.4%	nt	-6%&-4%
COc1cc(/C=N/c2oc(C)c(C)c2C#N)cc(Br)c1O	-3%	?	nt	12%
Cc1c(Cl)c([N+](=O)[O-])nn1CC(=O)NC1CCCCC1	19%	0.3%	10	-3%
Cc1ccc(/C=N/NC(=O)CNC(=O)COc2ccc(Cl)cc2)o1	-1%	-1.2%	5	-1%
O=C(NC1CCCCC1)C(c1ccc(F)cc1)N(C(=O)c1csnn1)C1CC1 (stereo unspecified)	4%	2.3%	nt	-1%
O=C(Cc1csc(-c2ccccc2)n1)NCc1ccc(F)cc1	16%	-1.4%	0	-15%
Cc1ccc(-n2nnnc2SCc2nnc(-c3ccccc3Br)o2)cc1	-6%	0.2%	1	-25%
Cc1nnc(SCc2ccc(C(=O)O)cc2)s1	16%	-3.5%	4	0%
O=C(CCN1C(=O)c2ccccc2C1=O)Nc1nc2ccccc2s1	15%	-3.6%	-2	-13%
CCC(=O)N1CCc2cc(S(=O)(=O)NC(C(=O)NC(C)c3ccccc3)C(C)C)ccc21 (stereo unspecified)	-13%	-2.4%	5	-7%
Cn1ccnc1Sc1nc2c(c(=O)n(C)c(=O)n2C)n1C	24%	4.9%	-1	1%
CCCSc1ccc([C@H]2N[C@@](Cc3ccccc3)(C(=O)OC)[C@H]3C(=O)N(C)C(=O)[C@@H]23)cc1	8%	-5.8%	nt	nt
COC(=O)c1cc(OC)c(OC)cc1NC(=O)c1ccc(C)o1	-3%	-1.7%	16	-5%
CCCCCCSc1ccc(-c2nc3ccc(C)cn3c2NC2CCCCC2)cc1	-22%	-0.4%	nt	nt
COc1ccc(S(=O)(=O)NCCSCc2ccco2)cc1	-3%	1.4%	-6	2%
Fc1cccc(Cn2cc(C(=S)N3CCOCC3)c3ccccc32)c1	10%	1.3%	-4	-4%
Cc1ccccc1NS(=O)(=O)c1ccc(C(=O)OCC(=O)NCC(C)C)cc1	9%	-2.4%	-3	-1%

These rows are one share of the data (hit frequency here may not be typical).
